UBC13 polyUb: UBC13 polyubiquitin chain formation inhibitors, primary screen, biochemical, TR-FRET, uHTS | Ubiquitin-conjugating enzyme E2 N (Homo sapiens), P61088 | inhibition, % at 20 µM | 0.47% of 330,000 active | AID 485273, 2010; in the data active = inhibition above about 45%, passing the limit was not always enough
Target sequence (P61088 whole entry, looked up): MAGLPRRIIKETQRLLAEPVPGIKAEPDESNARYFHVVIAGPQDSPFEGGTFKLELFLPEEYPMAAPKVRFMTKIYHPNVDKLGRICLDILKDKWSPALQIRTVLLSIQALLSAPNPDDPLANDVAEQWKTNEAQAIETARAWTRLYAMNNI
APJ ag: agonists of human apelin receptor APJ, primary screen, CHO-K1 cells, PathHunter beta-arrestin, luminescence. P35414. AID 2520, 2010. 0% DMSO wells, 100% apelin. activation, % at 20 µM. 0.11% of 330,000 active;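 active = activation more than six SD over the plate average, tested at 20 µM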;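 note: 0% = DMSO alone and 100% = apelin-13 at 10 nM; some results filed as inactive read as strong as hits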
Target sequence (P35414 whole entry, looked up): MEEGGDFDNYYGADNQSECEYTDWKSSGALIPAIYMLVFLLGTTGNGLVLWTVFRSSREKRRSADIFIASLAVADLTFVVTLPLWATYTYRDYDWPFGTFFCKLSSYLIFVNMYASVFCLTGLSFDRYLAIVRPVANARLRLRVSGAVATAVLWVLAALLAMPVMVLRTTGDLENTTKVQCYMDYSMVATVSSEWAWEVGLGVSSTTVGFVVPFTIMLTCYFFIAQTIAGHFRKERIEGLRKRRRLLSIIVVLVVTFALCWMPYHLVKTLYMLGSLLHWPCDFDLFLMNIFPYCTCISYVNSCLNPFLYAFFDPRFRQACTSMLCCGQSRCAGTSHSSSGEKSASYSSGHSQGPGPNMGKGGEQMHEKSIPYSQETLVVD
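Incubation: overnight seeding, 90 min compound at 25 °C, 1 h detection; test system: PathHunter CHO-K1 APJ (AGTRL-1) beta-arrestin reporter cells; amount: 1000 cells/well; doses: one dose, 20 µM compound, 1% DMSO; measured by: beta-gal luminescence; measure: agonist-driven arrestin binding to APJ; benchmarks: negative DMSO alone, positive Apelin-13 at 10 nM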
ATG4B inhibitor: ATG4B protease inhibitors, primary screen, biochemical, fluorescence, uHTS | Cysteine protease ATG4B (Homo sapiens), Q9Y4P1 | ATG4B cleavage of LC3-PLA2, NBD-HPC fluorescence, 1 h | 0.51% of 340,000 active | inhibition, % at 8.33 µM; in the data active = inhibition above about 40%
EBI2 block: EBI2 receptor antagonists, beta-arrestin recruitment, primary screen, cell-based, luminescence, 7a,25-OHC stimulation, uHTS. G-protein coupled receptor 183 (Homo sapiens), P32249. 7a,25-OHC stimulated. inhibition, % at 5 µM. 0.81% of 360,000 active; in the data active = inhibition above about 38%;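 note: enzyme fragment complementation signal reports receptor beta-arrestin coupling in cells; 0% = agonist plus DMSO wells and 100% = wells without agonist; some results beyond the cut were filed as inactive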
Target sequence (P32249 whole entry, looked up, the tested form may be a part): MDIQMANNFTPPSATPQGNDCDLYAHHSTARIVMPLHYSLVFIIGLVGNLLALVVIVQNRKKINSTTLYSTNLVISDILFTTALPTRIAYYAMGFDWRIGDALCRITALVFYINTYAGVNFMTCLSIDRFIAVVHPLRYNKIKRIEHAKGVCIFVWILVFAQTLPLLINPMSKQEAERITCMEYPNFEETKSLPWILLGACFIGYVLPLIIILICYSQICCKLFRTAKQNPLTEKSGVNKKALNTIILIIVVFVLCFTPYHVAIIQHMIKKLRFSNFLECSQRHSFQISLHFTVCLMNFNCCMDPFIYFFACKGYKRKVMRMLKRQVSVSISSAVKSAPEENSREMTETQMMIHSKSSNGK
Gli-Sufu antag: Gli-Sufu pathway antagonists, primary screen, luciferase luminescence, Sufu-KO-LIGHT cells, uHTS; AID 588413, 2011; inhibition, % at 5 µM; 0.74% of 340,000 active; Sufu-KO-LIGHT fibroblasts, Gli luciferase reporter luminescence;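 active = inhibition above about 55%, limit read from the data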;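 note: 0% = DMSO-treated cells and 100% = wells with medium but no cells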
APJ antagonist: antagonists of human apelin receptor APJ, primary screen, CHO-K1 cells, beta-arrestin complementation, luminescence. P35414. 0.32% of 330,000 active. inhibition, % at 20 µM. AID 2521, 2010;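 active = inhibition above about 40% at 20 µM, limit read from the data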;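 note: cells challenged with 10 nM apelin-13 agonist together with compound; plate controls were apelin-13 plus DMSO wells for no effect and DMSO wells lacking apelin-13 for full effect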
The depositor's hits bear a star; · = no result given. Not all compounds are listed; count on the stated rates, not on these rows.

Field names: A = UBC13 polyUb; B = APJ ag; C = ATG4B inhibitor; D = EBI2 block; E = Gli-Sufu antag; F = APJ antagonist
#1 CCSc1nnc(NC(=O)c2nc(S(=O)(=O)Cc3ccc(F)cc3)ncc2Cl)s1
  A: 42.6	B: -5.0	C: -0.1	D: 15.5	E: 16.8	F: -17.3

#2 COc1cccc(/C=C2/Sc3ccc(C(=O)NCCN4CCCCCC4)cc3NC2=O)c1
  A: 66.2*	B: 14.0	C: -0.2	D: -0.3	E: 7.3	F: 1.3

#3 CCOC(=O)CN1C(=O)N(c2ccccc2OC)S(=O)(=O)c2ccccc21
  A: 4.9	B: 2.7	C: -3.1	D: -7.2	E: -1.6	F: 9.4

#4 Cn1nnc(NC(=S)NC(=O)c2ccco2)n1
  A: -14.9	B: -4.4	C: -2.8	D: -3.3	E: -6.4	F: 26.1

#5 COc1cc(C(=O)NCc2cccc3ccccc23)ccc1OCc1ccccc1
  A: -5.8	B: 2.9	C: 35.9	D: 25.2	E: -0.3	F: -14.5

#6 CCc1ccccc1N/N=C(/C)c1c(O)cc(C)oc1=O
  A: 2.6	B: 5.7	C: 0.8	D: 4.5	E: 5.1	F: -26.2

#7 COc1ccccc1C(CC(=O)Nc1ccc(C)c(C)c1)c1ccc(OC(C)C)cc1 (stereo not drawn)
  A: 1.0	B: -3.6	C: -12.3	D: 26.3	E: 44.3	F: -0.6

#8 CCOC(=O)Cc1nn(Cc2ccccc2)c(=O)c2ccccc12
  A: 10.5	B: -4.3	C: 7.0	D: 3.7	E: 4.0	F: 3.1

#9 COC(=O)C1=C(C(=O)OC)C(C(=O)OC)C(C(=O)OC)C(C(=O)OC)(C(=O)OC)C(C(=O)OC)=C1C(=O)OC (stereo not drawn)
  A: ·	B: ·	C: -0.7	D: -0.2	E: 8.8	F: ·

#10 C/C=N/NC(=O)c1cc(Br)ccc1O
  A: -2.3	B: -2.9	C: 0.9	D: 8.4	E: -5.0	F: -25.0

#11 COc1ccccc1CN(C)C(=O)C1(c2ccc(Cl)cc2)CC1
  A: -3.0	B: -1.9	C: 8.9	D: 17.6	E: 10.8	F: 19.7

#12 Cc1c(C)c2ccc(OC(C)C(=O)N3C[C@H]4C[C@@H](C3)c3cccc(=O)n3C4)c(C)c2oc1=O (stereo partly drawn)
  A: -11.9	B: -2.1	C: -11.4	D: -3.0	E: 8.3	F: -9.2

#13 CCOC(=O)C1=C(C)Nc2nnnn2C1c1cccnc1 (stereo not drawn)
  A: -5.9	B: 5.0	C: -6.6	D: -8.1	E: -2.5	F: 4.1

#14 COc1cc(F)ccc1-c1cc(C(=O)NCc2cccc(Cl)c2)[nH]n1
  A: ·	B: ·	C: ·	D: 9.1	E: ·	F: ·

#15 Cc1cc(-c2csc(NC(=O)c3ccc(C#N)cc3)n2)c(C)n1Cc1ccco1
  A: 11.2	B: -1.1	C: -0.3	D: 6.3	E: 4.2	F: 12.0

#16 Cc1cccc(C)c1NC(=O)COC(=O)c1cc(-c2cccnc2)nc2ccccc12
  A: 4.9	B: -2.3	C: 9.4	D: 16.6	E: -3.2	F: 0.8

#17 CCCN1CCN(C(=O)CCCNC(=O)Cn2cnc3sc(C)c(C)c3c2=O)CC1
  A: 1.2	B: 4.7	C: -8.2	D: 0.1	E: 3.7	F: 7.8

#18 COc1cccc(OC)c1C(=O)NC(=S)Nc1ccc2c(c1)Cc1ccccc1-2
  A: 2.5	B: -1.7	C: 5.1	D: 15.6	E: -1.0	F: 4.4

#19 CCCC(=O)N1c2ccccc2C(=C2SC(C(=O)OC)=C(C(=O)OC)S2)C(=S)C1(C)C
  A: -98.3	B: -5.5	C: -13.4	D: 35.2	E: 5.7	F: 10.2

#20 CC(=O)c1ccc(NC(=O)c2cnsn2)cc1
  A: -13.9	B: -0.6	C: -1.1	D: -8.1	E: -25.4	F: 10.1

#21 COc1ccc(-c2csc3ncnc(N4CCN(c5cccc(Cl)c5)CC4)c23)cc1
  A: 2.2	B: -3.2	C: 1.3	D: 21.8	E: 16.1	F: 18.9

#22 Cc1cc([N+](=O)[O-])ccc1NC(=S)NC(=O)Cc1ccccc1
  A: -3.9	B: -13.1	C: -12.8	D: 1.8	E: 0.0	F: 20.0

#23 CC(=O)NS(=O)(=O)c1cccnc1Nc1cccc(Cl)c1
  A: -2.5	B: 1.2	C: -0.7	D: -8.4	E: -0.5	F: 8.2

#24 C=CCNC(=O)c1onc(CCl)c1C(=O)OC
  A: -2.8	B: -3.1	C: -3.8	D: -5.1	E: -13.7	F: 11.0

#25 Cc1oc2c(F)c(F)c(F)c(F)c2c1S(=O)(=O)Nc1cccc(C(F)(F)F)c1
  A: ·	B: ·	C: 10.8	D: -15.8	E: 5.3	F: ·

The list continues:
Field names: A = UBC13 polyUb; B = APJ ag; C = ATG4B inhibitor; D = EBI2 block; E = Gli-Sufu antag; F = APJ antagonist
#26 COc1ccc(/C=C/C(=O)OCC(=O)c2ccc3c(c2)NC(=O)CO3)c(OC)c1
  A: -9.4	B: -2.4	C: 3.3	D: 8.9	E: -9.8	F: -8.6

#27 COc1ccc(/C=C2/Sc3ccc(C(=O)NCCN4CCCCCC4)cc3NC2=O)cc1
  A: 67.2*	B: 9.4	C: 10.6	D: 9.9	E: 0.1	F: -8.1

#28 Cc1ccc([N+](=O)[O-])cc1-c1ccc2cccc(C)c2n1
  A: 10.1	B: -5.3	C: -0.8	D: 51.3*	E: 3.7	F: 23.9

#29 CCc1sc(C(=O)N2CCCN(C)CC2)cc1Br
  A: -8.2	B: 6.1	C: -4.4	D: 0.7	E: 14.2	F: -8.6

#30 CC(Oc1ccc(-c2ccccc2)c(F)c1)c1ccn(S(=O)(=O)c2cccc3ccccc23)n1 (stereo not drawn)
  A: -10.6	B: -4.4	C: 4.6	D: 4.9	E: -22.4	F: -1.2

#31 Cc1cc(C)c(S(=O)(=O)Nc2cccc(-n3cnnn3)c2)c(C)c1
  A: -10.2	B: 6.2	C: -10.8	D: 1.6	E: 16.4	F: -20.6

#32 CC(=O)Nc1ccc(C=NNC(=O)c2ccc(NS(=O)(=O)c3cccs3)cc2)cc1
  A: -20.4	B: -4.3	C: -11.2	D: -6.5	E: -3.8	F: 5.6

#33 CCC(C)c1ccccc1OCCCNC1CCCC1 (stereo not drawn)
  A: 11.1	B: 2.0	C: 9.9	D: 0.5	E: 17.1	F: 5.7

#34 CC(/C=C/c1ccc2c(c1)OCO2)=N\NC(=O)c1ccccc1
  A: 1.2	B: -2.6	C: -5.9	D: -3.0	E: -19.9	F: -4.4

#35 Cc1cccc(C(=O)N/N=C/c2ccoc2)c1
  A: -7.1	B: 0.2	C: -6.1	D: -3.2	E: -14.8	F: 15.3

#36 COc1ccc(C2SCC(C(=O)O)N2C(C)=O)cc1 (stereo not drawn)
  A: -5.8	B: -4.7	C: -0.3	D: -4.7	E: -1.1	F: 12.5

#37 COc1ccc(OC)c(-n2c(-c3cccc(O)c3)n[nH]c2=S)c1
  A: -0.1	B: 1.0	C: -0.3	D: -1.5	E: 0.7	F: -2.5

#38 CCC(=O)Nc1cc(-c2cc3ccccc3oc2=O)ccc1OC
  A: -6.3	B: -3.3	C: -10.2	D: -1.2	E: -99.5	F: 9.6

#39 O=C(NNC(=O)c1ccccc1-n1cccc1)c1ccc(Cl)cc1Cl
  A: 6.5	B: 0.1	C: -2.3	D: -10.4	E: 28.8	F: 14.5

#40 COc1cccc2sc(N(CCCN(C)C)C(=O)CCS(=O)(=O)c3ccccc3)nc12
  A: 19.9	B: -3.6	C: -3.3	D: 43.0	E: 5.8	F: 17.4

#41 Cc1[nH]c2ccccc2c1/C=N/NC(=O)c1cc(C(C)C)[nH]n1
  A: -5.6	B: 5.0	C: -8.8	D: -8.4	E: -4.3	F: -8.6

#42 CCCS(=O)(=O)N1CCC(C(=O)NCCN(CC)c2ccccc2)CC1
  A: 2.0	B: -1.2	C: -7.5	D: -6.1	E: 0.7	F: 6.6

#43 O=[N+]([O-])c1cc(C(F)(F)F)ccc1NCCOc1ccccc1
  A: 4.2	B: -2.7	C: 4.2	D: -2.6	E: -27.1	F: 11.0

#44 COc1ccc(/C=C2/Sc3ccc(C(=O)N4CCOCC4)cc3NC2=O)cc1OC
  A: -2.0	B: -1.6	C: -3.1	D: 1.4	E: -0.5	F: 20.1

#45 O=C1C2C3C=CC(C3)C2C(=O)N1CCN1CCN(Cc2ccc([N+](=O)[O-])cc2)CC1 (stereo not drawn)
  A: 8.6	B: -2.3	C: -15.2	D: 2.7	E: 6.9	F: 13.6

Gathered by group: the entries above containing a Cl atom
Field names: A = UBC13 polyUb; B = APJ ag; C = ATG4B inhibitor; D = EBI2 block; E = Gli-Sufu antag; F = APJ antagonist
#1 CCSc1nnc(NC(=O)c2nc(S(=O)(=O)Cc3ccc(F)cc3)ncc2Cl)s1
  A: 42.6	B: -5.0	C: -0.1	D: 15.5	E: 16.8	F: -17.3

#11 COc1ccccc1CN(C)C(=O)C1(c2ccc(Cl)cc2)CC1
  A: -3.0	B: -1.9	C: 8.9	D: 17.6	E: 10.8	F: 19.7

#14 COc1cc(F)ccc1-c1cc(C(=O)NCc2cccc(Cl)c2)[nH]n1
  A: ·	B: ·	C: ·	D: 9.1	E: ·	F: ·

#21 COc1ccc(-c2csc3ncnc(N4CCN(c5cccc(Cl)c5)CC4)c23)cc1
  A: 2.2	B: -3.2	C: 1.3	D: 21.8	E: 16.1	F: 18.9

#23 CC(=O)NS(=O)(=O)c1cccnc1Nc1cccc(Cl)c1
  A: -2.5	B: 1.2	C: -0.7	D: -8.4	E: -0.5	F: 8.2

#24 C=CCNC(=O)c1onc(CCl)c1C(=O)OC
  A: -2.8	B: -3.1	C: -3.8	D: -5.1	E: -13.7	F: 11.0

#39 O=C(NNC(=O)c1ccccc1-n1cccc1)c1ccc(Cl)cc1Cl
  A: 6.5	B: 0.1	C: -2.3	D: -10.4	E: 28.8	F: 14.5

Screens from PubChem.
